NPYLR7 ag: mosquito NPYLR7 agonism | HEK293T NPYLR7/Galpha15, GCaMP6s calcium fluorescence | activation, % at 10 µM | 270,000 tested, 0.15% active; in the data active = activation above about 40%;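 also: 0% = vehicle and 100% = reference agonist at the receptor; some compounds past the cut are filed as inactive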
NPYLR7 ag max-min: also measured in NPYLR7 ag; calls as there; activation, %; measured here: Max-Min RFU normalised activation; some inactives read as strong as hits;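 span of the calcium signal over five minutes; 0% = vehicle and 100% = native peptide agonist; compound fluorescence can raise it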
* marks the source's active call; other numbers are inactive results; & = joins results of further samples. Not all compounds are listed; rates above refer to the full screens.

The line under a structure holds: NPYLR7 ag, NPYLR7 ag max-min
- CC1(C)Cc2c(c(-c3ccco3)nc3sc4c(NCC5CCCO5)ncnc4c23)CO1 (stereo not drawn)
  4, 0
- COCc1noc(CC2CN(c3nccc(C4CCCC4)n3)CCO2)n1 (stereo not drawn)
  9, 3
- COc1ccc(CCNC(=O)c2c(C)noc2-c2cccc(C(F)(F)F)c2)cc1OC
  -3, 3
- O=C(N=Nc1c(O)[nH]c2ccc(Br)cc12)c1cc(O)c(O)c(O)c1
  2, 11
- COCCNC(=O)Cn1nc(C2CC2)c2cnn(-c3ccccc3)c2c1=O
  1, 0
- Oc1oc(-c2ccc(Br)cc2)nc1C=Nc1nncs1
  -11, -9
- CSc1ccccc1N1C(=O)CN(C(=O)c2ccccc2)CC1C (stereo not drawn)
  3, 1
- COc1ccc(CC(=O)N2CCN(c3nccc(-c4cccc(C(F)(F)F)c4)n3)CC2)cc1
  23, 15
- NS(=O)(=O)c1ccc(N2CCCC2c2ccc3c(c2)OCCO3)nc1 (stereo not drawn)
  0, 5
- CCC(CC)C(=O)N1CCN(c2ccc(NCc3ccccc3)nn2)CC1
  0, 0

Next section:
The line under a structure holds: NPYLR7 ag, NPYLR7 ag max-min
- Cc1noc(C2CCN(C(=O)NC(C)c3ccc(F)c(Cl)c3)CC2)n1 (stereo not drawn)
  2, -1
- COc1cc(C(O)c2cc3c(cc2CO)OCO3)cc(OC)c1OC (stereo not drawn)
  3, 2
- Cn1cnnc1SCc1ccc(C#N)cc1Cl
  11, 8
- CC(Sc1nnc(-c2ccco2)n1CCC(N)=O)C(=O)Nc1cccc(F)c1 (stereo not drawn)
  3, 8
- Cc1cc(C(=O)N2CCN(c3nc4ccc(OC(F)(F)F)cc4s3)CC2)c(C)o1
  1, 1
- Fc1ccc(CNc2ccc3c(-c4cccnc4)noc3n2)cc1
  2, 0
- COCC(=O)N(Cc1cc(NC(=O)c2cccc(F)c2)ccc1N(C)C)C(C)C
  6, 13
- CC(C)C(NS(=O)(=O)c1cccc(C(=O)O)c1)C(=O)O (stereo not drawn)
  -2, -6
- Cc1nc(CCN)cc(N2CCCC2c2nc(-c3ccccc3)no2)n1 (stereo not drawn)
  -1, -1
- CNC(=O)CCN1CCN(C2CCC(C(C)C)CC2)CC1 (stereo not drawn)
  7, 2

New compounds follow
The line under a structure holds: NPYLR7 ag, NPYLR7 ag max-min
- CC(C)(CO)NCc1ccccc1C(F)(F)F
  -1, -2
- CN(C)CCCN(C(=O)c1ccc(C(=O)c2ccccc2)cc1)c1nc2cc3c(cc2s1)OCO3
  1, -1
- CCCC(=O)N1CCN(Cc2nc3ccccc3c(=O)[nH]2)CC1
  8, 9
- CCCCc1ncc(-c2nccn2CCc2c(C)n[nH]c2C)[nH]1
  1, 1
- O=C(Nc1cnn(C23CC4CC(CC(C4)C2)C3)c1)c1cnn2cc(Br)cnc12
  1, -1
- COc1ccc(CCn2c(-c3cnc4ccccc4c3)nc3ccc(Cl)cc3c2=O)cc1
  7, 3
- CCOC(=O)C1=C(C)N=c2s/c(=C\c3cccc(O)c3)c(=O)n2C1c1ccc(OC)c(OC)c1 (stereo not drawn)
  2, -6
- COc1cccc(NC(=O)CCc2ccc3c(c2)OCO3)c1
  1, 1
- CC1=C(C(=O)N2CC=C(c3ccc(F)cc3)CC2)C(C)NC(=O)N1 (stereo not drawn)
  28, 18
- CCOc1cc(C(=O)Nc2ncnc3sccc23)cc(OCC)c1OCC
  -8, -9

New compounds follow
The line under a structure holds: NPYLR7 ag, NPYLR7 ag max-min
- CC(C)c1nnc(/C=C/C(=O)O)o1
  1, 0
- CC1(CNCc2ccccc2O)C2CC3CC(C2)CC1C3 (stereo not drawn)
  -9, -16
- CCc1ccc(/C=C/c2c([N+](=O)[O-])c(=O)n(C)c(=O)n2C)cc1
  11, 5
- Nc1nc(Cl)cc(NCCN2CCc3ccccc3C2)n1
  -6, -7
- COc1cccc(N2C(=O)CSC2c2ccc(NC(=O)c3ccco3)cc2)c1 (stereo not drawn)
  -2, 0
- CC1CCN(CC2CCCN(C(=O)NCc3ccccn3)C2)CC1 (stereo not drawn)
  9, 8
- NC(=O)CN(Cc1cccs1)c1ccc2c(c1)OCCO2
  7, 1
- COc1cc(Br)cc2c1Oc1nc(-c3ccccc3)nc(SCC(N)=O)c1C2
  3, 16
- CN1CCN(C=CC(=O)C(F)(F)F)CC1
  -6, -6
- Cc1onc(-c2ccccc2)c1C(=O)Nc1sc2c(c1C#N)CCCCCC2
  1, 0

Further records
The line under a structure holds: NPYLR7 ag, NPYLR7 ag max-min
- CC/C(=C/C(=O)N(C)Cc1cccc(OC)c1)c1ccc(C)cc1
  2, 1
- C[n+]1ccccc1N1CCN(CC(=O)NC2CC2)CC1
  -2, -4
- O=C(CC1SC(=NC2CCCC2)NC1=O)Nc1ccc2ccccc2c1 (stereo not drawn)
  1, 2
- CCOc1ccc(C(=O)Nc2cccc(-c3nc4cc(C)ccc4o3)c2)cc1Cl
  -7, -13
- COc1ccc(NC(=O)NC(Cc2ccccc2)C(=O)Nc2nnc(-c3cccc(C)c3)s2)c(OC)c1 (stereo not drawn)
  9, 3
- CCc1cn[nH]c1C1CCN(C(=O)[C@H]2[C@@H]3C=C[C@@]4(CN(C)C(=O)[C@@H]24)O3)CC1
  3, 1
- CCCOC(=O)Nc1sc2c(c1C(N)=O)CCC2
  5, 5
- N=C(N)N
  -8&-4, -13&-9
- COc1ccccc1N1CCN(C2CCCN(C(=O)C3CCCC3)C2)CC1 (stereo not drawn)
  5, 14
- Cc1cc(S(=O)(=O)O)cc(C)c1O
  0, -3

Later entries
The line under a structure holds: NPYLR7 ag, NPYLR7 ag max-min
- COCCN=c1scc(-c2ccc(OC(F)F)cc2)n1N=C(C)c1ccc2c(c1)OCO2
  -8, -11
- COc1cccc(OCc2ccc(Cn3nc(NC(=O)NCCc4ccc(OC)c(OC)c4)c4ccccc43)cc2)c1
  26, 28
- CCOc1ccc(-c2nc(N3CCN(c4cccc(OC)c4)CC3)c3ccccc3n2)cc1
  5, 3
- OCc1cc(-c2cnc3ccccc3c2)ccc1F
  8, 2
- CCOC(=O)c1c(NC(=O)c2cc(Cl)cnc2Cl)c(-c2ccc3c(c2)OCO3)cn1C
  11, 22
- C=CCN(CC(=O)N(CCc1ccc(OC)c(OC)c1)Cc1cccs1)C(=O)C(CC)c1ccccc1 (stereo not drawn)
  6, 16
- COc1cccc(F)c1-c1cnccc1C
  14, 1
- CCCCCc1nc2ccc(C)cn2c1NC1CCCCC1
  18, 21
- CCN(CC1CCOC1)C(=O)CNC(=O)c1c[nH]c2ccccc2c1=O (stereo not drawn)
  6, 2
- O=C(CCCSc1ccc(F)cc1)Nc1ncnc2sccc12
  5, 4

The list goes on:
The line under a structure holds: NPYLR7 ag, NPYLR7 ag max-min
- Cc1cccc2sc(N(CCCN3CCOCC3)C(=O)CS(=O)(=O)c3ccc(F)cc3)nc12
  1, -5
- CCCCCOc1ccc(C(=O)N2CCCN(C)CC2)cc1OCCCCC
  -8, -11
- CCOc1ccc(OCC)c(S(=O)(=O)NCCOc2ccc3nnc(C)n3n2)c1
  6, 14
- Cc1cccn2c(=O)cc(OCC(=O)NCc3ccc(F)cc3)nc12
  -2, 0
- NS(=O)(=O)c1ccc(CCNc2nn3c(-c4cccc(OC(F)(F)F)c4)cnc3s2)cc1
  -6, -9
- COCCN(CC(=O)N1CCc2sccc2C1c1ccccc1)C(=O)C(C)(C)CCl (stereo not drawn)
  -9, -10
- ON=C1CC2CC3(CC(C1)c1ccccc12)OCCO3
  9, 2
- COc1ccc(CCC(=O)N2CCNC(=O)C2)cc1Br
  12, 5
- Cn1c(SCCCn2c(=O)c3c(ncn3C)n(C)c2=O)nnc1-c1ccco1
  5, 3
- Cc1cnn(CCNCC(=O)NC(C)(C#N)C2CC2)c1 (stereo not drawn)
  0, -4

Following part.
The line under a structure holds: NPYLR7 ag, NPYLR7 ag max-min
- CC(C)(C)c1cnc(CN2C(=O)CC(C)(c3ccc(Br)cc3)C2=O)o1 (stereo not drawn)
  2, -1
- COc1cccc(-c2cc(C(=O)N3CCN(C(=O)c4ccc(F)cc4)CC3)c(C)n2-c2ccccc2)c1
  -1, 5
- CCC(NC(C)C)C(O)c1ccc(O)c(O)c1 (stereo not drawn)
  34&14, 34&-18
- CC(C)C1=NOC(C(=O)N(C)Cc2nncn2C(C)C)C1 (stereo not drawn)
  -1, -11
- CCNc1nc2c(c(=O)[nH]c(=O)n2C)n1CC(=O)c1ccccc1
  16, 6
- CC(C)(C)NC(=O)CN1C(=O)NC2(CCCc3ccccc32)C1=O (stereo not drawn)
  14, 5
- COc1cccc(NC(=O)N2CCN(c3nc(-c4cccc(F)c4)nc(C)c3Cc3ccccc3)CC2)c1
  -3, 1
- CCC(N)c1ccccc1OCc1ccccc1Br (stereo not drawn)
  20, 16
- CCn1nccc1C(=O)N=c1sc2c(C)ccc(OC)c2n1C
  5, 5
- COCCNC(=O)c1ccc2c(=O)n(CC(C)C)c(SCC(=O)c3c[nH]c4ccccc34)nc2c1
  8, -6

(listing goes on)
The line under a structure holds: NPYLR7 ag, NPYLR7 ag max-min
- CN(CCOc1ccccc1F)c1snc(Cl)c1C#N
  15, 10
- N#CC1C(=N)C(C#N)(c2ccc([N+](=O)[O-])cc2)C(C#N)C2CCCC=C12 (stereo not drawn)
  -1, 2
- Cc1cn2c3c(=O)n(C)c(=O)n(C)c3nc2n1CCNc1cccc(Cl)c1
  1, -2
- CC(=O)N1CCOC(CNc2nc(-c3cccnc3)nc3c2cnn3C)C1 (stereo not drawn)
  3, 1
- COCCCNC(=O)C(NC(=O)c1ccc(OC)cc1)C1CCN(C(=O)CCc2ccccc2)CC1 (stereo not drawn)
  -19, -18
- CC(C)NCC(=O)N1CC(=O)N(c2ccc(Cl)cc2)C1
  -6, -16
- O=c1c2nnc3c(-c4ccccc4)cnn3c2ccn1CC1CCCO1 (stereo not drawn)
  3, 1
- Cc1ccc(-c2cc(C(=O)N(CCN(C)C)Cc3ccccc3)n(-c3ccccc3)n2)cc1C
  -1, 6
- Cc1ccc(C)c(CN2CCC(CNC(=O)c3cccc(=O)[nH]3)C2)c1 (stereo not drawn)
  -2, -11
- Cc1nc2sccn2c(=O)c1NC(=O)C(c1ccccc1)c1ccccc1
  7, 0
- O=C(NC(c1ccc(Cl)cc1)c1cnccn1)C1CCN(CCOc2ccc(Cl)cc2)CC1 (stereo not drawn)
  -11, -5

Filtered by structure: the entries above containing fluorine.
The line under a structure holds: NPYLR7 ag, NPYLR7 ag max-min
- COc1ccc(CCNC(=O)c2c(C)noc2-c2cccc(C(F)(F)F)c2)cc1OC
  -3, 3
- COc1ccc(CC(=O)N2CCN(c3nccc(-c4cccc(C(F)(F)F)c4)n3)CC2)cc1
  23, 15
- Cc1noc(C2CCN(C(=O)NC(C)c3ccc(F)c(Cl)c3)CC2)n1 (stereo not drawn)
  2, -1
- CC(Sc1nnc(-c2ccco2)n1CCC(N)=O)C(=O)Nc1cccc(F)c1 (stereo not drawn)
  3, 8
- Cc1cc(C(=O)N2CCN(c3nc4ccc(OC(F)(F)F)cc4s3)CC2)c(C)o1
  1, 1
- Fc1ccc(CNc2ccc3c(-c4cccnc4)noc3n2)cc1
  2, 0
- COCC(=O)N(Cc1cc(NC(=O)c2cccc(F)c2)ccc1N(C)C)C(C)C
  6, 13
- CC(C)(CO)NCc1ccccc1C(F)(F)F
  -1, -2
- CC1=C(C(=O)N2CC=C(c3ccc(F)cc3)CC2)C(C)NC(=O)N1 (stereo not drawn)
  28, 18
- CN1CCN(C=CC(=O)C(F)(F)F)CC1
  -6, -6
- COCCN=c1scc(-c2ccc(OC(F)F)cc2)n1N=C(C)c1ccc2c(c1)OCO2
  -8, -11
- OCc1cc(-c2cnc3ccccc3c2)ccc1F
  8, 2
- COc1cccc(F)c1-c1cnccc1C
  14, 1
- O=C(CCCSc1ccc(F)cc1)Nc1ncnc2sccc12
  5, 4
- Cc1cccc2sc(N(CCCN3CCOCC3)C(=O)CS(=O)(=O)c3ccc(F)cc3)nc12
  1, -5
- Cc1cccn2c(=O)cc(OCC(=O)NCc3ccc(F)cc3)nc12
  -2, 0
- NS(=O)(=O)c1ccc(CCNc2nn3c(-c4cccc(OC(F)(F)F)c4)cnc3s2)cc1
  -6, -9
- COc1cccc(-c2cc(C(=O)N3CCN(C(=O)c4ccc(F)cc4)CC3)c(C)n2-c2ccccc2)c1
  -1, 5
- COc1cccc(NC(=O)N2CCN(c3nc(-c4cccc(F)c4)nc(C)c3Cc3ccccc3)CC2)c1
  -3, 1
- CN(CCOc1ccccc1F)c1snc(Cl)c1C#N
  15, 10

Assay outcomes from PubChem BioAssay.
